# Rango-impB inh: inhibitors of Rango-importin beta complex formation; Q14974; Rango CFP/YFP FRET sensor + importin beta, 45 min; Potency, µM (titrated, usually from 92.2 µM), for the others: at the top dose inhibition of complex formation; actives 0.031% (n = 340,000); AID 540263; active = rising FRET ratio curve, often small or poorly fitted; inconclusive = mostly compound fluorescence or quenching in the first reads; inactive = flat curves in all reads;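 also: potency is read from the fitted curve at half-maximal effect; 0% = DMSO wells and 100% = buffer wells lacking importin beta; nearly all actives have a fitted effect of over 15% in size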
# Target sequence (Q14974 whole entry, looked up): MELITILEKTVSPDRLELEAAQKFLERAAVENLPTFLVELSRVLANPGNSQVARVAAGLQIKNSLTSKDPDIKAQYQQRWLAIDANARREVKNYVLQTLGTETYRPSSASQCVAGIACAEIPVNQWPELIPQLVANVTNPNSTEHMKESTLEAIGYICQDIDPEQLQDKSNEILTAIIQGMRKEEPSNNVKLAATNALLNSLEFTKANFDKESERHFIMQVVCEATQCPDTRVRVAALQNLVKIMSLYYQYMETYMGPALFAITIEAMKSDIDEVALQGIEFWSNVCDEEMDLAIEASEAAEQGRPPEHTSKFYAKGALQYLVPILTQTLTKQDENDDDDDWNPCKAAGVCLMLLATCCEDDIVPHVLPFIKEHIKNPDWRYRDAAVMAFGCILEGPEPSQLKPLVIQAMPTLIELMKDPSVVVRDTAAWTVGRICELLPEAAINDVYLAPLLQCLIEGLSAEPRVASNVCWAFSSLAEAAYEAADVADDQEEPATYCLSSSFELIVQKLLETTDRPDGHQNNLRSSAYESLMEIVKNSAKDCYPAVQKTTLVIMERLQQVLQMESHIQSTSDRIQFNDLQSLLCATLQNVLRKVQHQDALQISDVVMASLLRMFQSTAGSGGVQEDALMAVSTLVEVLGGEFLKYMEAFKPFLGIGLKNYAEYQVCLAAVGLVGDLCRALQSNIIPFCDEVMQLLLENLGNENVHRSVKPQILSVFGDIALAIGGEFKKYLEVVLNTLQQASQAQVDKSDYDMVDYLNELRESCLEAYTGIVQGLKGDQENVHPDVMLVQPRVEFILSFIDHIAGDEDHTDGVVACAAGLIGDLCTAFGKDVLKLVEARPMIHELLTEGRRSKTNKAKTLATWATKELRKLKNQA
#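 FRET biosensor (snurportin 1 IBB flanked by EYFP and cerulean), 50 nM, with compound 5 min, then 0.125 microM importin beta in PBS, 1 mM DTT, 0.02% Tween-20, 0.1% BSA. CFP/YFP ratio read after 45 min at room temperature; pre-read flags interference.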
# Rango release inh: inhibition of RanGTP-driven Rango-importin beta dissociation | O95149+P62826 | Biochemical FRET Rango-importin beta, RanGTP-induced dissociation | Potency, µM (highest dose often 46.1 µM), for the others: top-dose activity change, negative = inhibition | actives 0.071% (n = 340,000); active means falling FRET ratio curve, often poorly fitted, with flat reads before Ran was added; inconclusive means other falling curves, or compound fluorescence or quenching; inactive means flat or rising ratio curve;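 also: potency is read from the fitted curve at half-maximal effect; % of control where 0% means no effect; nearly all actives have a fitted effect of over 45% in size; -100% = wells without RanGTP and RCC1; the record marks most hits as doubtful in a second field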
#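 Quantitative HTS using a FRET biosensor: 0.1 uM Rango, 0.25 uM importin beta, 0.6 uM Ran, 2 mM GTP, 0.2 uM RCC1 final, PBS with DTT, Tween-20 and BSA. Post-read taken 45 min after Ran addition.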
# miR-21 FLuc: raises the signal of a miR-21 reporter. HeLa miR-21 FLuc reporter, luciferase, 48 h. Potency, µM (doses to about 38.3 µM), without a hit: at the highest dose reporter change, positive = more light. 340,000 tested, under 10 active; active = well fitted rising curve with a large enough effect; inconclusive = small, poorly fitted or top-dose-only effect; inactive = no such curve, though single readings can be large or run the other way;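 also: % of control where 0% means no effect; miR-21 action dims this reporter so a rising signal means less miR-21 action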
#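 HeLa miR-21-FLuc reporter line, endogenous miR-21; 2000 cells/well in DMEM/10% FBS; compound titration up to ~40uM final, 48 h, 37 degree Celsius; luciferase detection reagent, 15 min lysis, CCD luminescence.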
# GLA inh pH 4.5: blocks human alpha-galactosidase A at pH 4.5. 230,000 tested, under 10 active. activity change, negative = inhibition, % at 105 µM. purified enzyme, 4-MU-alpha-Gal fluorescence, pH 4.5; inconclusive = small, poorly fitted or top-dose-only inhibition, or a rising curve; inactive = flat fitted curve, though single readings scatter; no compound was filed as active;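 also: 0% = full activity with enzyme and -100% = basal without enzyme; dose as in the result columns while the protocol names 77 µM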
# An asterisk follows results filed as active; ? = inconclusive; . = no result given. A portion of the library; count on the stated rates, not on these rows.
SMILES,Rango-impB inh,Rango release inh,miR-21 FLuc,GLA inh pH 4.5
O=C(C1CCCO1)N1CCc2ccccc21 (configuration not stated),-0.5%,14.4%,-6.1%,-14.9
Cc1nn(S(=O)(=O)N2CCOCC2)c(C)c1Br,-1.8%,-13.3%,-4.7%,8.3
Cc1ncc(CO)c2cc(C(=O)Nc3cccc(F)c3)c(=Nc3cccc(C(N)=O)c3)oc12,-2.7%,1.3%,3.1%,.
COc1ccc(CC(=O)Nc2nc(-c3ccncc3)cs2)cc1,-0.2%,5.2%,3.0%,9.0
COc1cc(S(=O)(=O)Nc2c(C)nn(C)c2C)ccc1NC(C)=O,4.8%,12.9%,.,.
COc1cc(CN2CCN(CC3CC3)CC2CCO)cc(OC)c1 (configuration not stated),-5.0%,50.7%,4.1%,.
COc1ccc(O)c(/C=C2/SC(=S)N(Cc3ccccc3)C2=O)c1,?,?,2.2%,.
COc1ccc(NC(=O)CC2SC(=NCC3CCCO3)NC2=O)cc1 (configuration not stated),-2.6%,11.0%,-2.5%,-0.4
Cc1ccc(-n2nnc(-c3nccs3)n2)cc1,-3.0%,-1.7%,25.6%,3.6
COc1c(N2C[C@@H]3CCCN[C@@H]3C2)c(F)cc2c(=O)c(C(=O)O)cn(C3CC3)c12,0.3%,?,.,.
Cn1c[n+](C)cc1/C=N/O,1.7%,-4.4%,0.2%,-16.1
COc1ccc(CCNC(=O)CCCNC(=O)Cn2cnc3sc(C)c(C)c3c2=O)cc1OC,11.4%,-16.5%,-0.6%,2.5
COc1ccc(C(=O)COC(=O)c2c(-c3ccccc3)noc2C)c(OC)c1,7.9%,23.1%,.,.
CCN(CC)S(=O)(=O)c1ccc(NC(=O)C2CC(=O)N(c3ccc4c(c3)OCCO4)C2)cc1 (configuration not stated),-0.4%,1.3%,.,.
O=C(CSc1cccc[n+]1[O-])Nc1c(Br)cc([N+](=O)[O-])cc1Br,0.0%,-7.8%,6.6%,7.1
O=C(Nc1cccnc1)c1c(O)c2cccc3c2n(c1=O)CC3,-2.0%,20.4%,-4.4%,5.2
O=C(Nc1cccc2nsnc12)c1ccc2c(c1)OCO2,?,?,-42.0%,-0.6
COc1ccc(CCN2C(=O)NC(NC(=O)CCc3ccccc3)(C(F)(F)F)C2=O)cc1OC (configuration not stated),0.8%,-9.4%,-7.5%,-0.5
CCOc1ccccc1N1CCN(C(=O)CNC(=O)c2ccccc2F)CC1,-2.4%,1.9%,-10.6%,.
Cc1cc(C(=O)COc2ccccc2C(N)=O)c(C)n1C1CC1,0.6%,-13.1%,-41.7%,5.5
O=C(COC(=O)c1ccc(O)cc1O)Nc1ccc2ccccc2c1,-1.5%,-11.0%,.,.
Cc1cc(C(=O)Nn2c(-c3ccncc3)nc3ccccc3c2=O)ccc1[N+](=O)[O-],-1.7%,17.7%,-0.6%,0.9
Cc1cccc(OCC(=O)OCC(=O)N(CC(C)C)c2c(N)n(Cc3ccccc3)c(=O)[nH]c2=O)c1C,?,10.5%,.,.
CC(C)CC(=O)Nc1ccc(S(=O)(=O)NCc2ccco2)cc1,-4.8%,9.3%,-18.7%,2.7
O=C(c1cc2c(=O)n3ccccc3nc2s1)N1CCOCC1,-1.2%,-7.8%,-43.4%,22.6
Cc1ccc(NC(=O)CSc2nc3ccccc3c3nc(CCc4c(C)n[nH]c4C)nn23)cc1F,3.7%,4.5%,-4.1%,11.7
Cc1ccc(-c2nc(N3CCN(C)CC3)c3ccccc3n2)cc1,1.7%,11.4%,-5.2%,.
O=C1c2cccc3cccc(c23)N1Cc1ccc(F)cc1,?,?,-14.2%,-1.9
COC(=O)c1ccc(C(=O)OC)c(NC(=O)CN2CCN(c3ccc(OC)cc3)CC2)c1,-1.0%,-3.2%,-3.4%,1.1
Cc1ccc(-n2c(SCc3nc4ccccc4c(=O)[nH]3)nnc2-c2ccccc2O)cc1,0.0%,-21.0%,-9.1%,-0.7

# 3 structures out of the list, sorted by molecular weight, ascending:
SMILES,Rango-impB inh,Rango release inh,miR-21 FLuc,GLA inh pH 4.5
O=C(Nc1cccc2nsnc12)c1ccc2c(c1)OCO2,?,?,-42.0%,-0.6
Cc1ccc(-n2c(SCc3nc4ccccc4c(=O)[nH]3)nnc2-c2ccccc2O)cc1,0.0%,-21.0%,-9.1%,-0.7
COc1ccc(CCN2C(=O)NC(NC(=O)CCc3ccccc3)(C(F)(F)F)C2=O)cc1OC (configuration not stated),0.8%,-9.4%,-7.5%,-0.5

# (next part)
SMILES,Rango-impB inh,Rango release inh,miR-21 FLuc,GLA inh pH 4.5
O=C(CCCn1cc([N+](=O)[O-])cn1)NCc1ccccc1,0.3%,39.1%,0.8%,-16.2
O=C(Cc1ccccc1)NCCc1cccc(Cl)c1,-2.5%,21.8%,-24.0%,-19.7
Cc1occc1C(=O)N/N=C/c1ccc(OCc2ccccc2)cc1,-3.4%,0.3%,-28.0%,-0.2
O=C(N/N=C/c1ccco1)C(O)C(O)C(=O)N/N=C/c1ccco1 (configuration not stated),0.2%,-0.6%,-3.0%,.
CCOC(=O)N1CCN(c2cc(=O)n(C)c(=O)n2C)CC1,6.6%,-27.8%,0.0%,-0.4
Oc1c(N=Nc2ccccn2)ccc2ccccc12,0.0%,0.3%,-0.9%,-21.4
CCC(C)[C@H]1CNCCN1CC1(c2ccccc2)CC1 (some centres not stated),-0.1%,-24.3%,.,.
CCC(C)NC(=O)c1cc(Cl)ccc1OC (configuration not stated),0.1%,2.8%,-8.6%,-4.1
Cc1cccc(NC(=S)N2CCC(O)CC2)c1C,-2.8%,6.6%,0.3%,1.5
Cc1nn(CC(=O)NCc2ccc(C(=O)O)cc2)c(C)c1[N+](=O)[O-],6.5%,?,-0.9%,-14.1
OC(COC(c1ccc(Cl)cc1)c1ccc(Cl)cc1)CN1CCN(c2ccccn2)CC1 (configuration not stated),0.2%,-8.6%,27.3%,-10.2
Cc1ccccc1C(=O)NCCc1nnc(SCC(=O)Nc2nc(-c3ccccc3)cs2)n1C,0.6%,4.1%,-12.0%,6.0
O=C(COC(=O)C1CC(O)CN1S(=O)(=O)c1ccccc1[N+](=O)[O-])c1ccc[nH]1 (configuration not stated),-2.9%,?,.,.
CCn1c(=O)cc(SCC(=O)N2CCC(C)CC2)c2ccccc21,0.1%,-2.6%,-5.7%,5.0
Cc1oc(/N=C/c2ccccc2O)c(C#N)c1C,?,-1.2%,-3.6%,-7.0

# Grouped by structure, the compounds so far containing two or more sulfur atoms
SMILES,Rango-impB inh,Rango release inh,miR-21 FLuc,GLA inh pH 4.5
COc1ccc(O)c(/C=C2/SC(=S)N(Cc3ccccc3)C2=O)c1,?,?,2.2%,.
Cc1ccccc1C(=O)NCCc1nnc(SCC(=O)Nc2nc(-c3ccccc3)cs2)n1C,0.6%,4.1%,-12.0%,6.0

# Carrying on.
SMILES,Rango-impB inh,Rango release inh,miR-21 FLuc,GLA inh pH 4.5
N#Cc1ccc(OS(=O)(=O)c2ccc(-c3ccon3)s2)cc1,-0.5%,-5.4%,3.8%,.
COc1cccc(-c2csc(N3CCN(C(=O)Nc4ccccc4Cl)CC3)n2)c1,1.3%,-2.7%,-17.5%,2.5
CCn1c(COc2ccc(Cl)cc2)nnc1SCc1ccc(C#N)cc1,5.7%,-11.5%,6.6%,0.4
Oc1ccc(Nc2nc(-c3cccs3)cs2)cc1,-0.6%,-0.6%,-13.3%,3.9
CCOC(=O)c1ccc(-n2c(CN3CCC(C(N)=O)CC3)nc3ccc([N+](=O)[O-])cc3c2=O)cc1,?,-2.1%,-6.9%,-6.2
O=C(Nc1ccccc1C(=O)Nc1ccccc1)c1ccco1,2.4%,-2.5%,0.0%,.
CCOC(=O)C1=NN(c2ccccc2C)C2=NC(C)=C(C(=O)OC)C(c3cccs3)N12 (configuration not stated),7.4%,-4.6%,-14.7%,0.9
CCn1c(=O)cc(NC2=NCC(C)CN2c2cccc(Cl)c2)n(C)c1=O (configuration not stated),0.3%,0.1%,-4.8%,4.0
CC(C)OCCCNc1ncc2c(n1)CC(c1cccs1)CC2=O (configuration not stated),-0.1%,1.0%,-18.0%,3.5
Cc1c(NC(=O)C2CCCCN2S(=O)(=O)c2ccc(Cl)cc2)c(=O)n(-c2ccccc2)n1C (configuration not stated),-2.6%,4.2%,-0.8%,4.7
CS(=O)(=O)c1ccc(Cl)c(NC(=O)COC(=O)c2ccc(F)cc2Cl)c1,2.4%,3.9%,1.6%,4.4
O=C(/C=C/c1ccccc1)NNC1=NS(=O)(=O)c2ccccc21,0.4%,-15.1%,-1.9%,0.8
COc1ccc(NC(=O)c2onc(C)c2Cl)cc1,1.4%,17.4%,-42.9%,2.8
Cn1c(=O)c2c(SCC(=O)N3CCN(c4ccccc4)CC3)nc(C3CC3)nc2n(C)c1=O,?,3.2%,1.6%,-0.1
CN(C)S(=O)(=O)c1cccc(NC(=O)COC(=O)/C=C/c2ccc3c(c2)OCO3)c1,?,-20.5%,-4.7%,-7.8
COc1ccc(C(C(=O)NCC2CCCO2)N(C(=O)Cn2nnc3ccccc32)c2ccccc2C(C)=O)cc1OC (configuration not stated),1.8%,-1.3%,7.2%,.
Cc1cccc(C)c1N1C(=O)c2cccc([N+](=O)[O-])c2C1=O,0.1%,6.4%,15.2%,4.0
CCC(C)(C)NC(=O)C(c1ccc(F)cc1)N(Cc1ccco1)C(=O)CCC(=O)Nc1ccccn1 (configuration not stated),1.3%,-1.3%,-0.5%,-0.4
O=C1OCCN1C(=O)[C@H]1[C@H](c2ccc(F)cc2)C(c2cccc(Cl)c2)=NN1c1ccccc1,?,?,.,6.2
O=C(O)CSc1nc(-c2cccs2)cc(C(F)(F)F)n1,?,16.2%,-2.6%,7.9
COCCNc1c(-c2cc3ccc(C)c(C)c3[nH]c2=O)nc2ccccn12,3.1%,10.2%,0.3%,3.9
CC(=O)c1ccc(NC(=O)CN2c3cccc4cccc(c34)S2(=O)=O)cc1,-6.8%,6.8%,.,.
O=C(CSc1nc2ccccc2o1)NCCOc1ccccc1,0.4%,-0.7%,-3.2%,14.3
CCN1/C(=C2/SC(=S)N(NC(C)=O)C2=O)Sc2ccc(OC)cc21,?,?,-1.1%,.
CCN(/C=N/c1sc2c(c1C#N)CC(C)(C)NC2(C)C)CC,2.2%,4.1%,-14.7%,-4.4
O=C(c1ccco1)N(Cc1ccc(Cl)cc1)Cc1ccco1,2.8%,4.5%,-6.3%,.
COc1ccc(CN(C)C(C)C(=O)Nc2ccc(S(=O)(=O)N3CCCC3)cc2)c(OC)c1OC (configuration not stated),.,.,21.9%,-9.9
CN=C1SC(CC(=O)Nc2ccc(F)cc2F)C(=O)N1/N=C(\C)c1cccc(OCC(=O)O)c1 (configuration not stated),-0.9%,-13.3%,4.4%,-10.6
Cc1cc(C)n2c(SCC(=O)N(C)C3CCCCC3)nnc2n1,0.3%,0.3%,-0.8%,13.6
S=c1nc2ccccc2c2nc(-c3cccnc3)[nH]n12,2.3%,3.9%,-4.5%,3.8
COC(=O)c1sccc1S(=O)(=O)NCc1ccc(S(N)(=O)=O)cc1,-3.5%,1.0%,1.0%,.
CCN(CCNS(=O)(=O)c1ccc2[nH]c(=O)sc2c1)c1ccccc1,-4.0%,-0.2%,-6.4%,-5.1
Cc1ccc(S(=O)(=O)CCc2nnc(N)s2)cc1,2.2%,1.1%,-0.4%,10.5
Cc1ccc(N=C2NC(=O)/C(=C/C=C/c3ccco3)S2)cc1C,?,?,2.0%,-13.9
N#Cc1ccc(S(=O)(=O)N2CCCN(c3ccc(C(F)(F)F)cn3)CC2)cc1,5.0%,0.3%,10.2%,-14.0
Cc1nc(Nc2nc3ccccc3o2)nc(C)c1C,0.3%,18.4%,-37.7%,6.5
CC1C(=O)Nc2ccccc2N1C(=O)c1c(F)cccc1F (configuration not stated),1.9%,-6.3%,-0.2%,.
CCOc1cc(CNC(CC)CO)ccc1OCC(=O)Nc1cccc(C(F)(F)F)c1 (configuration not stated),-2.2%,10.1%,0.5%,-15.9
CCOc1ccccc1Nc1nc(-c2sc(NC(=O)c3cccc(Cl)c3)nc2C)cs1,?,-16.7%,-31.6%,7.1
O=C(O)c1ccc(S(=O)(=O)N2CCCc3ccccc32)cc1,-0.7%,-22.8%,2.0%,.
